Screening results from PubChem BioAssay.
Hsc70 ATP site = small molecules displacing fluorescent ligand from Hsc70 – biochemical, fluorescence polarization, primary screen (AID 568); Hsc70 fluorescence polarization, probe displacement; higher % means a stronger effect; strong numbers were not always called active; one-dose displacement, % at 20 µM; IC50 in µM for titrated hits; 83,000 tested, under 10 active;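 active means displacement above 50% without optical interference and an IC50 on retest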;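 further: ATPase domain with a fluorescein-tagged ATP probe; 0% = vehicle and 100% = excess ADP; read after one hour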
WNV protease inh = blocks West Nile virus NS2B-NS3 protease activity | P06935 | WNV NS2B-NS3 protease, fluorogenic substrate Ex360/Em465; active compounds read low | z-score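 (tested at a level between 10 and 100 µM)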 | 65,000 tested, 0.18% active | AID 577;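 active means z-score at -3 or under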;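 further: score is relative to mean and spread of the compound wells of a plate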
Target sequence (P06935 1371-1501 limits assumed): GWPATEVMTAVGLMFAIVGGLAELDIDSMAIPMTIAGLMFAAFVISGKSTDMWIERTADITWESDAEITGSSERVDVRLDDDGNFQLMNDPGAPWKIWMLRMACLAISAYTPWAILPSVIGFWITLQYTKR
Target sequence (P06935 1502-1679 limits assumed): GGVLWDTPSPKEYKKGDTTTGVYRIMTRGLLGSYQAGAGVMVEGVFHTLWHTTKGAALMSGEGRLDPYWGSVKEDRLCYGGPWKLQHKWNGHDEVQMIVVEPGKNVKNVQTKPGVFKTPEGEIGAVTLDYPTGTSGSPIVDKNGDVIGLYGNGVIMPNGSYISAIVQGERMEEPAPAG
MT1-MMP promoter = inhibitors of MT1-MMP promoter transcription, cell-based, luciferase reporter, luminescence (AID 618); MT1-MMP promoter luciferase reporter cells, luminescence; calls from a first round at 10 µM; hits with a dose series show EC50 in µM; 87,000 tested, 0.62% active;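 active means over half of the reporter light lost at 10 µM or EC50 under 50 µM; inactive means the rest and hits that failed the dose series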;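 further: actives suppress MT1-MMP promoter-driven transcription so potencies describe inhibitors; HT1080 fibrosarcoma cells; overnight exposure; toxic or luciferase-blocking compounds were not removed from the actives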
Active calls of the source: *; i = inactive; / = no result given.

compound	Hsc70 ATP site	WNV protease inh	MT1-MMP promoter
O=c1cc(N2CCN(Cc3ccccc3)CC2)[nH]c(=O)n1Cc1ccc(F)cc1	2.9%	-0.46	i
CCCn1c(N)c(Sc2ccccc2)c(=O)n(CCC)c1=O	1.2%	/	i
COc1ccc(CCNC(=O)c2nc3ncccn3n2)cc1OC	0.0%	0.23	i
CCCCCC(=O)N1CC2(C)CN(C(=O)CCCCC)CC(C)(C1)C2=O	1.0%	0.12	i
CC(=O)Nc1ccc(NC(=O)C2CCCN(c3nnc(-n4cccc4)s3)C2)cc1 (stereo unspecified)	2.8%	-0.35	i
COc1ccc(N2C(=O)CSC2c2ccncc2)cc1 (stereo unspecified)	-0.9%	1.4	i
CC1CN(C(=O)C2CCCCC2)C(C)CN1C(=O)C1CCCCC1 (stereo unspecified)	2.8%	-0.55	i
COc1cccc(CN2CCN(S(=O)(=O)c3ccc(Br)cc3)CC2)c1	-2.2%	/	i
CCOC(=O)CSc1nnc(-c2ccc(NS(=O)(=O)c3ccc(C)cc3)cc2)o1	2.4%	0.1	i
COc1ccc(-c2cc(C(F)(F)F)nc(N3CCCCC3)n2)cc1OC	4.8%	-0.74	i
O=C(CSc1n[nH]c(-c2ccncc2)n1)NC1CCS(=O)(=O)C1 (stereo unspecified)	1.6%	-1	i
C/C(Cn1cnc([N+](=O)[O-])n1)=N\NC(=O)c1cccc(F)c1	8.4%	/	i
CC(C)CC(c1nnnn1CC1CCCO1)N1CCN(c2nc3ccccc3s2)CC1 (stereo unspecified)	2.9%	0.9	i
CCOC(=O)c1[nH]c2cc(OC)c(OC)cc2c1NC(=O)CN(C)C1CCCCC1	-2.1%	0.74	i
O=C(NCCc1ccccn1)c1ccc(COc2ccccc2)o1	-5.1%	-0.39	i
COCCn1nnnc1C(c1ccc(OC)cc1)N1CCN(c2ccccc2F)CC1 (stereo unspecified)	3.9%	0.4	i
CC(=O)c1c(C)[nH]c(C(=O)Nc2cccnc2)c1C	-4.0%	0.63	i
Cc1nn(C)c(C)c1S(=O)(=O)N1CCC(C(=O)NCC2COc3ccccc3O2)CC1 (stereo unspecified)	8.0%	-0.91	i
COCCn1c(SCC(=O)NCc2ccc3c(c2)OCO3)nnc1-c1c[nH]c2ccccc12	-0.3%	-1.1	i
CC1CN=C(NC2CCCCC2C)S1 (stereo unspecified)	-2.9%	-1.3	i

compound	Hsc70 ATP site	WNV protease inh	MT1-MMP promoter
CCc1c(C)c2ccc(OCC(=O)N(C)C)c(C)c2oc1=O	0.7%	0.91	i
CS(=O)(=O)N(CCc1ccccc1)CC(=O)NCc1ccco1	-0.3%	-0.81	i
CC(C)COC(=O)N1CC(O)CC1C(=O)O (stereo unspecified)	5.9%	9e-05	i
N=c1c(S(=O)(=O)c2ccccc2)cc2c(=O)n3ccccc3nc2n1CCN1CCOCC1	-0.3%	0.53	i
O=S(=O)(NCc1cccnc1)c1ccc(Cl)c(Cl)c1	3.5%	0.06	i
O=C(Nc1ccc2c(c1)OCO2)[C@@H]1[C@@H]2C(=O)N(C3CCCCC3)C(=O)[C@@H]2C2c3ccccc3C=CN21 (stereo partly specified)	-10%	-0.33	i
O=C(CCn1c(=O)sc2ccccc21)NC1=NCCS1	3.8%	0.19	i
CCOC(=O)CN1C(=N)N(c2nc(NC(C)C)nc(NC(C)C)n2)CC1=O	-2.5%	/	i
Cc1cccc(C)c1NC(=O)CSc1nnc([C@@H]2CCCN2C(=O)OC(C)(C)C)o1	0.5%	-0.78	i
CC1(C)CC(=NO)CC(C)(C)N1	-4.8%	0.33	i
Cc1cc(O)c(C(C)C)cc1N=C1CSC(=O)N1	37%	0.95	i
CC1CCc2nn(CC(=O)NCCCN3CCCCC3)cc2C1 (stereo unspecified)	3.5%	0.49	i
CCCCOC(=O)C1=C(C)NC2=C(C(=O)CCC2)C1c1cc(OC)ccc1OC (stereo unspecified)	-7.7%	-0.51	i
O=C(Cn1cnc2c(cnn2-c2ccccc2)c1=O)N1CCN(c2ccc(F)cc2)CC1	1.3%	0.13	i
O=C(CN(CCc1ccccc1)C(=O)CNS(=O)(=O)c1ccc(F)cc1)NCc1ccco1	4.4%	-0.12	i
N#CCCN1CCN(C(=S)c2ccc(-c3cc(Cl)ccc3Cl)o2)CC1	4.4%	1.1	i
Cc1[nH]c(C(=O)N2CCCCC2)c(C)c1C(=O)NC1CCCCC1	-1.0%	-1	i
COc1ccc(CCNc2nc(-c3sc(N)nc3C)cs2)cc1OC	-2.4%	-0.74	i
CCN(CC)C(=O)Sc1cccc2cccnc12	5.0%	-1	i
CC1CCN(CC(O)COC2CCC(C(C)(C)C)CC2)CC1 (stereo unspecified)	-3.0%	-0.61	i

compound	Hsc70 ATP site	WNV protease inh	MT1-MMP promoter
O=C(NCC1CCCO1)c1ccc(NC(=O)C2CCCCC2C(=O)O)cc1 (stereo unspecified)	6.1%	0.93	i
COc1ccc(N2CCN(C(=O)CCNS(=O)(=O)c3ccc4c(c3)CCC(=O)N4)CC2)cc1	4.5%	-1.7	i
N#Cc1c(NC(NC(=O)c2ccco2)C(=O)c2ccccc2)sc2c1CCCC2 (stereo unspecified)	-0.3%	0.59	i
CCCn1c(=O)c2c(c3ccccc31)OCC(=O)N2	-1.2%	1.6	i
CCc1ccccc1NC(=O)Cn1nnc(-c2cccs2)n1	-1.6%	0.42	i
Cc1cc(C)c(C#N)c(SCC(=O)Nc2ccc3c(c2)OCO3)n1	-2.4%	/	i
COCC(=O)NC1CCN(S(=O)(=O)c2ccc(C(=O)O)cc2)CC1	-0.3%	-0.82	i
COc1ccc(C(C)N2CC34C=CC(O3)C(C(=O)O)C4C2=O)cc1 (stereo unspecified)	-1.7%	0.06	i
CCn1c(C(=O)N2CCCC(C(=O)NCCc3ccc(C)cc3)C2)cc2sccc21 (stereo unspecified)	-1.6%	1.5	i
Cc1cccc(NC(=O)CSc2nnc(-c3ccccc3)n2N)c1C	-10%	-1.4	i
O=C(NCc1ccco1)c1cccnc1-c1nc2ccccc2s1	0.8%	1	i
FC(F)Oc1ccccc1C1CC(c2ccc(Br)s2)Nc2ncnn21 (stereo unspecified)	-2.3%	0.6	i
Cc1ccc(N=C2SCCCN2C(=O)c2ccco2)cc1Cl	2.7%	-0.18	i
CC1CN(c2ccc(Oc3ccccc3)cc2)c2nc3c(c(=O)[nH]c(=O)n3C)n2C1 (stereo unspecified)	4.8%	0.13	i
Cc1ccc(C)n1-n1cnc2scc(-c3cccs3)c2c1=O	3.7%	-0.96	i
Cc1noc(C)c1S(=O)(=O)N1CCC(C(=O)NCCc2ccc(S(N)(=O)=O)cc2)CC1	0.6%	/	i
CC1CCN(C(=O)Cn2nc(C(F)(F)F)c3c2CCCC3)CC1	5.7%	0.02	i
CCCS(=O)(=O)Nc1cc(C(F)(F)F)ccc1OCCOC	-1.4%	0.96	i
COc1ccc(C)c2sc(N3CCCC3)nc12	3.7%	0.19	i
CCSc1nnc(NC(=O)CCc2ccccc2)s1	-6.4%	-0.38	i

Full records from above. Values in the order: Hsc70 ATP site	WNV protease inh	MT1-MMP promoter
FC(F)Oc1ccccc1C1CC(c2ccc(Br)s2)Nc2ncnn21 (stereo unspecified) reads -2.3%	0.6	i
O=C(NCC1CCCO1)c1ccc(NC(=O)C2CCCCC2C(=O)O)cc1 (stereo unspecified) reads 6.1%	0.93	i
O=C(NCc1ccco1)c1cccnc1-c1nc2ccccc2s1 reads 0.8%	1	i

(continued)
compound	Hsc70 ATP site	WNV protease inh	MT1-MMP promoter
O=C(NCc1ccncc1)Nc1cccc(Cl)c1	-0.4%	/	i
CCOC(=O)c1cc(-c2nnc(-c3ccc(Cl)cc3)o2)c(C)nc1C	2.4%	0.66	i
COc1cc(C(=O)Nc2cccc(-c3nc4ncccc4o3)c2C)cc(OC)c1OC	-8.8%	-0.0011	i
CCOC(=O)c1cc2c(n(-c3ccc(C)cc3)c1=O)CCCC2=O	-0.1%	-0.55	i
Cc1cc(C)cc(N(CCC#N)C(=O)CSc2nc3nc(C)cc(C)n3n2)c1	-1.4%	1.4	i
CC(C)(C)OC(=O)NCc1nc(N)n[nH]1	-2.8%	0.26	i
Cc1cc(C(=O)CN2C(=O)c3ccccc3C2=O)c(C)n1Cc1cccs1	-1.1%	-0.09	i
CC(C)C(NC(=O)OCc1ccccc1)C(=O)OCC(=O)N1CCCCC1 (stereo unspecified)	-2.4%	-1.2	i
CCOC(=O)C1=C(O)/C(=C/c2cn(CC(=O)NCC3CCCO3)c3ccccc23)SC1=Nc1ccc(C)cc1 (stereo unspecified)	27%	/	i
Cc1ccc(C(=O)Nc2ccc(Cl)cn2)cc1S(=O)(=O)N1CCOCC1	-4.9%	1.8	i
C=C1C(C(=O)N2CCN(C)CC2)C1C(=O)N1CCN(C)CC1 (stereo unspecified)	2.9%	0.15	i
O=S(=O)(NC1CCCC1)c1ccc(S(=O)(=O)NC2CCCC2)cc1	-4.2%	0.52	i
O=S(=O)(Nc1ccc2oc(-c3ccccc3)nc2c1)c1ccccc1	-0.1%	0.19	i
CC(=O)NCCCc1c[nH]c2ccc(Cl)cc12	1.2%	1.3	i
CCOC(=O)C(C)Oc1cccc2c(=O)n(CC(=O)N3CCc4ccccc43)ccc12 (stereo unspecified)	1.6%	-0.34	i
O=C(NC1(C(=O)NC2CCCC2)CCCCC1)c1ccc2c(c1)OCO2	-2.7%	0.15	i
CCOC(=O)Cc1csc(SCc2nc3ccccc3c(=O)[nH]2)n1	-5.7%	1.8	i
CC1CCN(c2nc3ccccc3nc2C(C#N)S(=O)(=O)c2ccccc2)CC1 (stereo unspecified)	-4.7%	-0.83	i
COc1ccc(NC(=O)COC(=O)CCCc2c[nH]c3ccccc23)cc1OC	-0.3%	/	i
CC(=O)C1=C(O)C(=O)N(Cc2cccnc2)C1c1ccccc1Cl (stereo unspecified)	0.2%	-1.2	i

Already shown: 2 of the compounds above.
compound	Hsc70 ATP site	WNV protease inh	MT1-MMP promoter
COc1ccc(NC(=O)COC(=O)CCCc2c[nH]c3ccccc23)cc1OC	-0.3%	/	i
CC(=O)C1=C(O)C(=O)N(Cc2cccnc2)C1c1ccccc1Cl (stereo unspecified)	0.2%	-1.2	i

The results go on.
compound	Hsc70 ATP site	WNV protease inh	MT1-MMP promoter
CCN(Cc1ccccc1)C(=O)CCc1nc(-c2ccc(C)cc2)no1	-1.4%	-0.22	i
CCCCn1c(Cc2ccccc2)nnc1SCC(=O)Nc1cc(C)on1	7.3%	/	i
Cc1nc(-c2coc3cc(OCC(=O)O)ccc3c2=O)cs1	-7.2%	0.13	i
O=C1COc2ccc(C(=O)c3ccccc3C(=O)NCc3ccco3)cc2N1	2.7%	/	i
Cc1ccc(C2(CC(=O)O)CCOC(C)(C)C2)cc1 (stereo unspecified)	5.5%	/	i
COCc1[nH]nc2c1C(c1cccc(OC)c1)C(C#N)=C(N)O2 (stereo unspecified)	-9.3%	0.14	i
Fc1ccc(NCc2nnc(SCc3nnc(-c4ccccc4)o3)n2Cc2ccccc2)cc1	3.8%	-0.44	i
O=C(c1ccccc1)c1nc2ccccc2n(CCCn2c(=O)c(C(=O)c3ccccc3)nc3ccccc32)c1=O	-2.4%	/	i
COc1ccc(-c2c(C)nn3c(N4CCN(Cc5ccccc5)CC4)cc(C)nc23)cc1OC	0.1%	-0.41	i
COc1ccc(S(=O)(=O)N[C@H](C(=O)N2CC[C@@]3(O)CCCC[C@H]3C2)c2ccccc2)cc1	2.5%	-0.61	i
CCC1(c2ccccc2)NC(=O)N(CC(=O)Nc2ccc3c(c2)OCO3)C1=O (stereo unspecified)	-8.1%	-0.57	i
CCOC(=O)C1=C(N)OC2=C(C(=O)CCC2)C1c1ccccc1OCC (stereo unspecified)	1.2%	0.87	i
CC(=O)Nc1ccc(S(=O)(=O)Nc2ccc(NC(=O)c3ccco3)cc2)cc1	8.7%	1	i
CC(CC(=O)NCc1ccccc1)C1CCCO1 (stereo unspecified)	-0.9%	-0.12	i
FC(F)(F)c1cccc(-n2cccc2/C=N/n2cnnc2)c1	-4.2%	0.19	i
Cc1cccc(OCC(=O)Nc2cccc(O)c2)c1	5.3%	0.8	i
COCCN1Cc2cccc(C(=O)Nc3cc(OC)ccc3OC)c2C1=O	-0.7%	-0.21	i
O=S(=O)(c1cccc2nsnc12)N1CCN(C/C=C\c2ccccc2)CC1	4.1%	/	i
O=C(Cn1c(C(F)(F)F)nc2ccccc21)NCCN1CCCC1	2.9%	0.68	i
Cc1cc(NC(=O)CSc2nc3c([nH]c4ccccc43)c(=O)n2-c2cccc(C(F)(F)F)c2)no1	-4.0%	/	i
CC(C)CC(c1nnnn1C1CCCCC1)N1CCN(c2ncccn2)CC1 (stereo unspecified)	2.0%	-0.72	i
CCC(=O)N(Cc1ccc2c(c1)OCO2)Cc1cc2cc(OC)ccc2[nH]c1=O	1.3%	0.33	i
CC(C)N(C(=O)Cn1c(SCC(=O)NCc2ccc3c(c2)OCO3)nc2ccccc21)C(C)C	-6.1%	/	i

Only part of the results is shown; count on the stated rates, not on these rows.
